Compound activity: PubChem BioAssay, National Center for Advancing Translational Sciences (NCATS)
VACV Venus inh = inhibitors of vaccinia virus (Venus reporter). Vaccinia virus Venus reporter expression, fluorescence. Potency, µM (series often up to 36.5 µM), for the others: top-dose activity change, negative = inhibition, usual class: inhibitors. hit rate 0.46% among 330,000. AID 720580; active means well fitted inhibition curve with a large enough effect; inconclusive means small, poorly fitted or top-dose-only effect; inactive means no such curve, though single readings can be large or run the other way; tested in A549 cells; also: nearly all actives have a fitted effect of over 30% in size; inactives centre near -10
VACV mCherry inh = vaccinia inhibition (mCherry reporter). Vaccinia virus mCherry reporter infection, fluorescence; about a quarter of the inactives have no number. Potency, µM (series often up to 36.5 µM), without a hit: at the top dose activity change, negative = inhibition, usual class: inhibitors. hit rate 0.63% among 310,000. AID 720579; active = well fitted inhibition curve with a large enough effect; inconclusive = small, poorly fitted or top-dose-only effect; inactive = no such curve, though single readings can be large or run the other way; tested in A549 cells; also: nearly all actives have a fitted effect of over 35% in size; inactives centre near -10
An asterisk follows results filed as active; i = inactive; ? = inconclusive; nt = no result given; [ ] = remark or other dose. % is scaled to controls: 0 for no effect and ±100 for the full control effect; potency is read from the fitted curve at half-maximal effect.

SMILES	VACV Venus inh	VACV mCherry inh
CC(=O)N1CCc2c(sc(NC(=O)CCS(=O)(=O)c3ccc(C)cc3)c2C(N)=O)C1	-5%	-21%
Cc1cc(C)c(NC(=S)NCC2CCN(C(C)c3ccccc3)C2)c(C)c1 (stereo unspecified)	4%	-6%
O=C(CSc1nnc(-c2ccccn2)o1)Nc1cccc(Cl)c1	-10%	?
O=C(NCCc1ccccc1)/C(=C\c1ccc([N+](=O)[O-])cc1)NC(=O)c1ccco1	-14%	-11%
O=C1OCCN/C1=C\C(=O)c1ccc(Cl)cc1	-2%	-11%
CCn1ccnc1CNC(=O)c1cc(COc2ccc(F)cc2F)on1	15%	9%
CCOc1c(O)ccc(C2NC(=O)NC(C)=C2C(=O)OC)c1[N+](=O)[O-] (stereo unspecified)	-7%	-18%
CCn1c(SCC(=O)NNC(=O)c2ccc(OC)cc2)nnc1C1CC1	3%	?
Cc1ccc(Cl)cc1NC(=O)Cn1c(=O)n(Cc2ccccc2)c(=O)c2oc3ccccc3c21	?	?
Cc1ccc(C(=O)COC(=O)CNC(=O)c2cccs2)cc1C	-3%	-15%
COC(=O)c1sc(NC(=S)NC(=O)c2cccc(C)c2)nc1C	-5%	-9%
Cn1cc(CN2CCN(Cc3ccc4c(c3)OCO4)CC2)c(-c2ccccc2F)n1	4%	i

Remaining list, next part.
SMILES	VACV Venus inh	VACV mCherry inh
NC(=O)c1cc([N+](=O)[O-])ccc1NCc1cccc([N+](=O)[O-])c1	-24%	?
C/C(=N\NC(=O)C(N)=O)c1ccc(O)cc1O	-11%	-22%
Cc1ccc(Cl)cc1N1CCN(C(=O)CSc2ccsc2[N+](=O)[O-])CC1	-14%	-7%
Cn1nnnc1SCCCNCc1ccc(-c2ccc(Br)cc2)o1	-15%	-16%
Cc1ccc(-n2c(SCC(=O)NNC(=S)Nc3ccccc3)nc3ccccc3c2=O)cc1	-7%	-13%
CCOc1ccccc1NC(=O)CN1CCN(C(=O)C2CCCO2)CC1 (stereo unspecified)	-13%	-9%
COc1ccccc1CNC(=O)C(=O)NCC1OCCN1C(=O)c1cccs1 (stereo unspecified)	-13%	-20%
COc1ccc(S(=O)(=O)N2CCCCC2)cc1NC(=O)C1COc2ccccc2O1 (stereo unspecified)	-14%	-20%
Cc1nc(CN2CCCCC2)cc(=O)[nH]1	-6%	-1%
COc1cc2ccc(C(C)=NNC(N)=S)cc2cc1OC	?	6.3µM*
CN(C)CCN1C(=O)c2oc3ccc(Cl)cc3c(=O)c2C1c1cccc(Br)c1 (stereo unspecified)	-10%	-2%
CC(C)(C)NS(=O)(=O)c1ccc(OCC(=O)N2CCN(Cc3ccccc3)CC2)cc1	-5%	-16%

2 neighbouring records from above:
SMILES	VACV Venus inh	VACV mCherry inh
CN(C)CCN1C(=O)c2oc3ccc(Cl)cc3c(=O)c2C1c1cccc(Br)c1 (stereo unspecified)	-10%	-2%
CC(C)(C)NS(=O)(=O)c1ccc(OCC(=O)N2CCN(Cc3ccccc3)CC2)cc1	-5%	-16%

Profiles, looked up by structure. Screens in order: VACV Venus inh	VACV mCherry inh
CCOc1ccccc1NC(=O)CN1CCN(C(=O)C2CCCO2)CC1 (stereo unspecified) across the screens: -13%	-9%
Cc1ccc(-n2c(SCC(=O)NNC(=S)Nc3ccccc3)nc3ccccc3c2=O)cc1 across the screens: -7%	-13%
Cn1nnnc1SCCCNCc1ccc(-c2ccc(Br)cc2)o1 across the screens: -15%	-16%

Going on with the list:
SMILES	VACV Venus inh	VACV mCherry inh
COc1cc(C)ccc1OCCOc1c(C)cccc1Cl	-7%	-1%
Cc1nn(C)c2ncc(C(=O)c3cc(F)ccc3O)cc12	-3%	nt
CN1CCN(c2ccc(NC(=O)CSc3nnnn3-c3ccccc3F)cc2)CC1	-14%	-24%
COc1ccc(NC(=O)CSc2nnc3ccc(-c4ccncc4)nn23)cc1OC	-9%	-8%
Cc1ccccc1CNC(=O)c1ccc(Cl)c([N+](=O)[O-])c1	-11%	?
Clc1ccc(CNC2CCCC2)c(Cl)c1	-8%	-8%
COCCn1nnnc1SCC(=O)N1CCCCC1	-6%	-10%
Cc1ccccc1OCC(=O)N/N=C/c1cccn1C	-19%	-22%
O=C(NCc1ccc2c(c1)OCO2)c1cc2ccccc2oc1=O	-7%	nt
O=C(NCCS(=O)(=O)N1CCN(c2ccccc2F)CC1)c1ccc2c(c1)OCO2	-3%	-9%
COc1ccccc1-c1cc(C(F)(F)F)nc(S(=O)(=O)CCCC(=O)Nc2cccnc2Cl)n1	?	?
CCC(=O)Nc1nnc(S(=O)(=O)N2CCCC2)s1	-14%	i

Additional compounds follow.
SMILES	VACV Venus inh	VACV mCherry inh
O=C1CN(C(=O)COC(=O)c2ccc(N3CCCCCC3)c([N+](=O)[O-])c2)c2ccccc2N1	-9%	-7%
Cc1nc(Cl)sc1C(=O)Nc1cccc(C(F)(F)F)c1	-6%	i
CC(=O)N/C(=C\c1ccc(Br)s1)C(=O)O	-12%	i
Cc1cc(NC(=O)CCl)nn1C	?	?
CNC(=O)OCc1ncn(-c2ccccc2)c1COC(=O)NC	6%	i
CCOC(=O)C1(Cc2cccc(Cl)c2)CCCN(C(=O)c2cn[nH]c2)C1 (stereo unspecified)	-18%	-19%
COC(=O)c1ccc(C23CC4(C2)[C@H](CN(Cc2ccc(-c5ccccc5)cc2)[C@@H]4c2ccccc2)C3c2ccc(Cl)nc2)cc1 (stereo partly specified)	-11%	i
COc1cccc(CN2CCc3nc(N4CCN(C)CC4)ncc3C2)c1	-11%	-8%
CCOC(=O)c1cnc2ccc(OC)cc2c1NCc1ccccc1	-3%	-23%
CC1CCCC(C)N1CCCNC(=O)c1ccc2nc(N3CCOCC3)sc2c1 (stereo unspecified)	1%	i
Cc1ccccc1NC(=O)Cn1cc(C(=O)c2cccs2)c2ccccc21	-22%	-28%
C=CCOc1cccc(/C=N/NC(=O)CN2CCCCC2)c1	-6%	-7%

(more compounds)
SMILES	VACV Venus inh	VACV mCherry inh
Cc1cc(C(=O)CN2C(=O)NC3(CCCc4sccc43)C2=O)c(C)n1-c1ccc(Cl)cc1 (stereo unspecified)	-16%	i
COC(=O)/C=C1\SC(=Nc2ccccc2)NC1=O	-11%	i
O=C(CN1CCN(c2ccccn2)CC1)Nc1cccc(S(=O)(=O)N2CCCC2)c1	?	?
CCOc1ccccc1NC(=O)Cn1c(=O)n(Cc2ccccc2)c(=O)c2c(C)c(C(=O)N(C)C)sc21	17%	-7%
COc1cc(C(=O)N2Cc3ccc(Br)cc3-n3nncc3C2)cc(OC)c1OC	-3%	i
C[C@H](CO)N1C[C@H](C)[C@@H](CN(C)C(=O)NC2CCCCC2)Oc2c(NS(=O)(=O)c3ccccc3)cccc2C1=O	-12%	2%
Cc1cc(OCC(=O)Nc2nccs2)c2c(C)c(C)c(=O)oc2c1	-8%	-9%
O=C(NCCCN1CCCCCC1)C1CC(=O)N(CCc2ccccc2)C1 (stereo unspecified)	-13%	-12%
COc1cccc(C2=NOC(C(=O)Nc3cccc(C(C)=O)c3)C2)c1OC (stereo unspecified)	-13%	-17%
CCn1c(CNC(=O)c2ccco2)nnc1SCC(=O)c1ccccc1	-1%	-1%
Cc1ccccc1S(=O)Cc1ccc(C(=O)N2CCN(C(=O)c3ccco3)CC2)o1 (stereo unspecified)	-6%[7.34 µM]	i[7.34 µM]
COc1ccc(C(=O)Nc2ccc(S(=O)(=O)Nc3onc(C)c3C)cc2)cc1OC	-7%	nt

Additional entries follow:
SMILES	VACV Venus inh	VACV mCherry inh
CC1(C(=O)N2Cc3ccccc3C2)CCN1C(=O)C1(c2ccc(Cl)cc2)CC1 (stereo unspecified)	0%	i
CC(C)(C)NC(=O)C1C(c2ccc(C(F)(F)F)cc2)=Nc2ccccc2N1C(=O)c1cccc2ccccc12 (stereo unspecified)	-5%	i
COc1ccc(CCNC(=O)C(C)c2ccc([N+](=O)[O-])cc2)cc1 (stereo unspecified)	-8%	i
O=c1cc(C(Cl)(Cl)Cl)oc2c1ccc1ccccc12	-29%	?
CCOC(=O)c1cc(C#N)c(N2CCOCC2)nc1-c1ccccc1	0%	-4%
COc1cccc(C(=O)NNC(=O)C(=O)Nc2ccc(C)c(Cl)c2)c1	3%	-13%
CC(Nc1oc(-c2ccc(COc3ccccc3)o2)nc1C#N)c1ccccc1 (stereo unspecified)	-29%	?
Cc1cccc(C)c1-n1nnnc1-c1nc2cc(Br)ccc2[nH]c1=O	-9%	-3%
CC(C)(C)c1ccc(C(=O)Nc2ccc3nc(SCC(=O)N4CCCC4)sc3c2)cc1	?	?
C/C(=N\Nc1ccc([N+](=O)[O-])cc1)c1ccc2c(c1)OCO2	-23%	-30%
O=C(Nc1ccc(F)cc1)Nc1nnc(COc2ccccc2F)s1	?	-11%
CCCCNC(=O)CNC(=S)N(Cc1cc(OC)c(OC)c(OC)c1)C1CCCC1	-4%	-16%

Next entries
SMILES	VACV Venus inh	VACV mCherry inh
COc1ccc(C(=O)Nc2ccc(-c3nnc4n3CCCCC4)cc2)cc1	-4%	-2%
COc1ccc(OC)c(C(=O)NC(CC(N)=O)c2ccc(NCc3ccccn3)c([N+](=O)[O-])c2)c1 (stereo unspecified)	-9%	i
Nc1nc(CSC(=S)N2CCCCC2)nc(Nc2ccccc2)n1	-8%	i
c1ccc(OCCOCCN2CCN(C(c3ccccc3)c3ccccc3)CC2)cc1	-28%	?
CCCSC1=NC2(CCN(C(=O)NC3CCCCC3)CC2)N=C1c1ccc(OC)cc1	-21%	-24%
CC(C)(C)NC(=O)CN(C(=O)Cn1nnc(-c2ccc(Cl)cc2)n1)C1CCN(Cc2ccccc2)CC1	?	?
c1ccc(-c2csc(-c3ccncc3)n2)cc1	4%	?
COC(=O)c1ccn(-c2nc(-c3ccc(Cl)cc3)cc(C(F)(F)F)n2)n1	-4%	-6%
O=C(CSc1nnc2n1CCCN2)c1ccc(Cl)cc1	-7%	-15%
CCN(C(=O)Cc1ccc(NC2=NC3CS(=O)(=O)CC3S2)cc1)c1ccccc1 (stereo unspecified)	1%	-13%
COc1ccc(-n2c(CNC(=O)c3ccccc3C(F)(F)F)nnc2SC)cc1	3%	-3%
C=C(C)c1ccc(C(C)(C)NC(=O)NCc2ccco2)cc1	-10%	nt

(list continues)
SMILES	VACV Venus inh	VACV mCherry inh
O=C(CCNC(=O)c1ccco1)Nc1ccc(OC(F)F)cc1	-12%	i
CC(=O)c1sc(NC(=O)COc2ccc(Cl)cc2C)nc1C	-2%	-14%
CCCCc1ccc(NC(=O)c2ccc3c(c2)CCN3S(=O)(=O)c2ccccc2)cc1	?	?
CC(SCc1nc2sc3c(c2c(=O)[nH]1)CCCC3)C(=O)Nc1ccccn1 (stereo unspecified)	-10%	-23%
CCCCCn1c(NC(=O)c2ccco2)c(S(=O)(=O)c2ccc(C)cc2)c2nc3ccccc3nc21	7%	-6%
CC1CCCCC12NC(=O)N(CC(=O)c1ccc3c(c1)OCO3)C2=O (stereo unspecified)	-23%	-24%
COc1ccc(S(=O)(=O)NC2CC(=O)N(c3ccc4c(c3)OCCO4)C2)cc1 (stereo unspecified)	-3%	-2%
COc1ccc(-c2csc(CCn3nc(C)cc3C)n2)cc1	-12%	-6%
COc1ccc(NC(=O)CN2CCCN(Cc3ccccc3)S2(=O)=O)cc1	-10%	-8%
Nc1ccc(S(=O)(=O)Nc2nccc(/C=C/c3ccccc3F)n2)cc1	-1%	i
O=C(c1ncc[nH]1)c1ccccc1C(=O)N1CCOCC1	-8%	i
CSc1ccc(CN2CCN(C(=O)COc3cccc(C)c3)CC2)cc1	-22%	-12%

(list continues)
SMILES	VACV Venus inh	VACV mCherry inh
COC(=O)C1=C(C(=O)OC)SC2(S1)C(C(=O)OC)=C(C(=O)OC)Sc1c2ssc1=O	7.1µM*	7.1µM*
O=[N+]([O-])c1cccc(NC(=S)Nc2nc(-c3ccccc3Cl)cs2)c1	?	?
CCOC(=O)c1sc(NS(=O)(=O)c2ccc(NC(C)=O)cc2)nc1C	-2%	-17%
CN(C)/C=C1\NC(=S)N(c2ccc(Cl)cc2)C1=O	13%	-6%
CCCC(O)(c1ccc(Cl)cc1)C(CN1CCOCC1)c1ccc(Cl)cc1 (stereo unspecified)	-5%	i
COc1cccc(C(=O)O[C@H]2[C@H](Cc3ccccc3)NS(=O)(=O)[C@H]3C[C@@H]4C=C[C@]23O4)c1	?	-5%
Cc1cc(C(=O)Nc2ccccc2C(=O)N2CCCCC2)ccc1[N+](=O)[O-]	-16%	-21%
CCc1nn(CC(=O)NC2CC2)c(=O)c2cc3c(OC)cccc3n12	-4%	1%
COC(=O)c1cc2c(cc1Cl)SC(=NCCCN1CCOCC1)NS2(=O)=O	4%	-7%
O=Cc1nccc2ccccc12	-7%	-16%
CCCn1c(=S)[nH]c2cc(C(=O)N3CCN(C)CC3)ccc2c1=O	-14%	-5%
Nc1ccc(N2CCOCC2)c2nonc12	-14%	-8%

Additional structures follow.
SMILES	VACV Venus inh	VACV mCherry inh
COCCn1c(-c2ccc(C#N)cc2)nc2c1c(=O)[nH]c(=O)n2Cc1ccccc1	-8%	i
COc1ccc(-c2nc3cc(C)c(Br)c(C)n3c2Cc2cccc(F)c2)cc1OC	4%	3%
Cc1cc(F)ccc1NC(=O)CCS(=O)(=O)c1cc2c3c(c1)CCN3C(=O)CC2	-1%	-4%
CN(C)CCCNCCCNC(=O)/C=N/O	-6%	i
CCOC(=O)c1c(NC(=O)/C=C/c2ccc(OCC)cc2)sc(C(C)=O)c1C	3%	-8%

An unsorted share of the library; any-hit rate near 0.87%.
